Screening results deposited in PubChem BioAssay by Broad Institute.
PAX8 reporter: lowers PAX8-driven luciferase in RMG-I cells. actives 1.2% (n = 360,000). RMG-I TPO-luciferase reporter, SteadyGlo, 24 h. AID 652154. inhibition, % at 12.6 µM;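 active = mean replicate inhibition at least 60% with every replicate also reaching 60%; inconclusive = only one of the two criteria is met; inactive = mean below 60% and not all replicates reaching 60%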;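 also: luciferase light reporting Pax8 driven TPO promoter activity; plate controls were median of neutral control wells for no effect and mitoxantrone controls for full effect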
CASP6 VEID inh: caspase-6 (human) enzyme inhibition. inhibition, % at 12.5 µM. actives 0.53% (n = 350,000). AID 686996. purified caspase-6, Z-VEID-R110 cleavage fluorescence. P55212;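 active = mean inhibition across replicates at least about 35%, with every replicate also reaching that limit, limit read from the data; inconclusive = only one of the two criteria met; inactive = neither criterion met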;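 also: 0% = median of neutral control wells and 100% = no fluorescence left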
Target sequence (P55212 24-179 limits assumed): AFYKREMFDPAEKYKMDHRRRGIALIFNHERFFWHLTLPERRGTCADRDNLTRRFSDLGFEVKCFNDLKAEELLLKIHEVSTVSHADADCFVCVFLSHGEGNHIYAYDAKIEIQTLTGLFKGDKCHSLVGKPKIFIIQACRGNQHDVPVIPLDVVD
Target sequence (P55212 194-293 limits assumed): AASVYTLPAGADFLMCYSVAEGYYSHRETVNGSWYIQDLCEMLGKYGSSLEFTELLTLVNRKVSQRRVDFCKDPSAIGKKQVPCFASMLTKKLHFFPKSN
LGR2 antag: Drosophila LGR2 receptor signaling inhibition. actives 0.35% (n = 380,000). inhibition, % at 9.99 µM. HEK293 LGR2, CRE-luciferase, bursicon-stimulated, 4 h;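 active = drop in luminescence signal, shown as inhibition above about 50% in the replicate tests, limit read from the data, passing the limit was not always enough; inconclusive = probably only some replicates passing the limit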;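 also: agonist challenge used bursicon conditioned medium at about half maximal strength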
EWS-Fli inh: blocks EWS/Fli oncoprotein-driven transcription; A673 NR0B1-luciferase reporter, viability-normalised; actives 0.67% (n = 350,000); AID 651661; inhibition, % at 12.6 µM;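 active = mean inhibition of at least 50% after viability correction, with every replicate also passing that limit; inconclusive = mean reaches 50% but only one of two replicates passes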;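 also: firefly luciferase signal divided by Alamar Blue viability fluorescence both relative to DMSO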
SIRT5 inh: blocks human SIRT5 desuccinylation of peptide; Q9NXA8; Purified SirT5, succinyl-peptide AMC, trypsin-coupled fluorescence; inhibition, % at 15 µM; actives 1.1% (n = 330,000); AID 652115; in the data active = inhibition above about 15%; inconclusive = no clear call, values can overlap the other calls
Target sequence (Q9NXA8 whole entry, looked up): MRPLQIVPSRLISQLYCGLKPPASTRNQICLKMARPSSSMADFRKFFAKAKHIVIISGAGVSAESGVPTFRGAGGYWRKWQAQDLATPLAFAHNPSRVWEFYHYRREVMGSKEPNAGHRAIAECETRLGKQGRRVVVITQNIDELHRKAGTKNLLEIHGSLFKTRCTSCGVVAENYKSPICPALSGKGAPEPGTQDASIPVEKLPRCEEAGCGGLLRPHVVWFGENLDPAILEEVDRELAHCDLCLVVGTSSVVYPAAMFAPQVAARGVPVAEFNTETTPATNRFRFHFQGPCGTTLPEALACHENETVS
DENV2 CPE rescue: protects cells from dengue virus 2 cytopathic effect | DENV2-infected cells, cytopathic effect rescue, plate reader | CPE inhibition, % at 9.99 µM | actives 1.7% (n = 350,000) | AID 651640; in the data active = CPE inhibition above about 20%, passing the limit was not always enough; inconclusive = no clear call, values can overlap the other calls; tested in BHK-21 cells;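 also: 0% = median of neutral control wells and 100% = median of positive control wells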
* hit, by the source's call; ? = inconclusive; · = not tested or not shown. Not all compounds are listed; the hit share may differ from the screen's.

The opening four entries (preview)
SMILES	PAX8 reporter	CASP6 VEID inh	LGR2 antag	EWS-Fli inh	SIRT5 inh	DENV2 CPE rescue
Cc1cc(C)c2c(CC(=O)NNC(=O)c3ccccc3)coc2c1	16	-4	2	2	4	-9
COCC(=O)N(C)C[C@H]1Oc2cc(C#Cc3cccnc3)ccc2S(=O)(=O)N([C@@H](C)CO)C[C@H]1C	2	0	2	-7	0	3
O=C1CCN(Cc2ccccc2)C=C1c1ccc(C(F)(F)F)cc1	-6	4	-22	6	-1	-3
COc1cnc(-c2ccccn2)nc1Sc1ccc(Cl)cc1	-5	·	·	·	·	·

Main list, from the first entry:
SMILES	PAX8 reporter	CASP6 VEID inh	LGR2 antag	EWS-Fli inh	SIRT5 inh	DENV2 CPE rescue
Cc1cc(C)c2c(CC(=O)NNC(=O)c3ccccc3)coc2c1	16	-4	2	2	4	-9
COCC(=O)N(C)C[C@H]1Oc2cc(C#Cc3cccnc3)ccc2S(=O)(=O)N([C@@H](C)CO)C[C@H]1C	2	0	2	-7	0	3
O=C1CCN(Cc2ccccc2)C=C1c1ccc(C(F)(F)F)cc1	-6	4	-22	6	-1	-3
COc1cnc(-c2ccccn2)nc1Sc1ccc(Cl)cc1	-5	·	·	·	·	·
COc1ccccc1NC(=O)C(C)OC(=O)/C(=C/c1ccccc1)NC(C)=O (configuration not stated)	-2	4	-19	10	-5	15
C[C@H]1CN([C@@H](C)CO)C(=O)c2cc(NS(C)(=O)=O)ccc2O[C@H]1CN(C)S(=O)(=O)c1ccc(F)cc1	·	1	-3	-12	·	3
Cc1ncc(CO)c(/C=N/NC(=O)c2ccc(O)cc2)c1O	2	·	11	·	·	·
COc1ccc(/C=C/C2=Nc3ccccc3NC(C)(C)C2)cc1OC	-134	4	-52	-114	-4	2
COc1ccc(-c2cccc(NC(=O)c3ccco3)c2)nn1	-12	2	2	-8	-5	-3
COc1cc2c(cc1OC)CN(C(=O)c1sccc1C)CC2	4	3	-6	0	1	-2
O=C(N/N=C/c1ccccn1)c1ccc(Cl)c(Cl)c1	-8	0	-48	-5	0	0
CCNC(=O)Nc1ccc2c(c1)C(=O)N(C)[C@@H]1CC[C@@H](CC(=O)N[C@@H](C)c3ccccc3)O[C@H]1CO2	-15	8	-5	-1	3	-3
O=C(N[C@H]1CC[C@@H](CCn2cc(-c3ccccc3)nn2)O[C@H]1CO)c1cnccn1	10	2	13	3	2	0
C[C@@H]1CN([C@H](C)CO)C(=O)c2cc(NC(=O)Nc3cccc4ccccc34)ccc2O[C@@H]1CN(C)C(=O)Nc1ccc(C(F)(F)F)cc1	·	-4	1	-13	4	13
N#CC(c1ccncc1)(c1ncc(C(F)(F)F)cc1Cl)N1CCOCC1 (configuration not stated)	-15	2	-4	0	1	4
N#Cc1ccc(/C=N/NC(=O)c2ccccc2F)cc1	-1	0	8	6	-4	·
CC(=O)N1CCc2cc(C(=O)CN3CCCCC3)ccc21	7	-1	-8	5	3	19
O=[N+]([O-])c1cc(-c2n[nH]c(-c3ccccc3)n2)cc([N+](=O)[O-])c1	·	-2	2	14	-2	8
O=C1Cc2ccccc2C(=O)N1Cc1cccc(Cl)c1	-12	68*	-9	1	-2	0
NC(CO)C(O)c1ccc([N+](=O)[O-])cc1 (configuration not stated)	·	-1	13	-7	·	-15

In another format: results already given.
mol,PAX8 reporter,CASP6 VEID inh,LGR2 antag,EWS-Fli inh,SIRT5 inh,DENV2 CPE rescue
COc1ccc(/C=C/C2=Nc3ccccc3NC(C)(C)C2)cc1OC,-134,4,-52,-114,-4,2
COc1ccc(-c2cccc(NC(=O)c3ccco3)c2)nn1,-12,2,2,-8,-5,-3
COc1cc2c(cc1OC)CN(C(=O)c1sccc1C)CC2,4,3,-6,0,1,-2
O=C(N/N=C/c1ccccn1)c1ccc(Cl)c(Cl)c1,-8,0,-48,-5,0,0

The listing continues.
SMILES	PAX8 reporter	CASP6 VEID inh	LGR2 antag	EWS-Fli inh	SIRT5 inh	DENV2 CPE rescue
CC(C)NC(=O)Nc1ccc2c(c1)CC(=O)N([C@@H](C)CO)C[C@@H](C)[C@H](CN(C)Cc1ccc(Oc3ccccc3)cc1)O2	45	0	28	18	10	8
O=C(NC1CCC(O)CC1)c1cccnc1Sc1ccccc1Cl (configuration not stated)	·	-4	-4	0	-5	?
CCN(c1ccccc1)S(=O)(=O)c1ccc(C(=O)Nc2nnc(CSC)o2)cc1	31	1	9	30	-4	-6
O=S(=O)(Cc1cccc(C(F)(F)F)c1)c1ncn[nH]1	0	0	13	2	-2	-3
C/C(=N\Nc1ccc(Cl)cc1)c1c(O)cc(C)oc1=O	6	0	-20	3	-2	-11
COc1cc2c(cc1OC)CN(C(=O)COc1ccccc1C#N)CC2	0	0	-6	6	-4	4
Cn1c(-c2ccccc2)c(C#Cc2ccc(N)cc2)c2ccccc21	6	4	·	4	·	0
CC(NS(=O)(=O)c1ccc(Cl)cc1)C(=O)OCC(=O)c1ccc[nH]1 (configuration not stated)	-6	3	13	2	0	-6
CCOC(=O)c1cnc(-n2nc(C)cc2C)nc1-n1nc(C)cc1C	·	·	-2	·	·	·
O=C(Cn1cnc2sc3c(c2c1=O)CCCC3)NCC(=O)Nc1c(F)cc(F)cc1Br	-24	-2	17	·	-9	0
O=C1CCCC(O)=C1C1C2=C(CCCC2=O)OC2=C1C(=O)CCC2	6	-1	-15	-1	-2	3
Cn1c(Nc2ccc(Cl)cc2)cc(=O)n(C)c1=O	2	2	6	-7	-3	-4
c1ccc(-c2cnc(-c3cccnc3)o2)cc1	·	·	-25	·	·	·
C[C@@H]1CN([C@H](C)CO)C(=O)c2cc(NC(=O)Nc3cccc4ccccc34)ccc2O[C@H]1CN(C)C(=O)Nc1ccc(C(F)(F)F)cc1	·	-3	9	0	12	-6
O=C(CSCc1ccccc1Br)N/N=C/c1ccc(OCC(=O)N2CCCCC2)cc1	6	·	2	·	·	·
Cc1ccc(C(=O)N/N=C\c2ccc(-c3ccc(Cl)cc3)o2)cn1	5	1	19	-7	-5	-3
CCCc1nnc(-c2ccc(OC)cc2)o1	-27	-4	·	-12	6	3
C[C@@H]1CN([C@H](C)CO)C(=O)c2cc(-c3cncnc3)cnc2O[C@@H]1CN(C)C(=O)c1ccccc1F	·	0	-1	-2	-3	?
CC(=O)NS(=O)(=O)c1cccnc1Nc1cccc(Cl)c1C	4	-1	27	28	-1	1
Cc1ccc2cc(C(c3nnnn3Cc3ccccc3)N3CCc4ccccc43)c(=O)[nH]c2c1C (configuration not stated)	18	·	·	·	·	·
Cc1cc(C)cc(OCC(=O)N/N=C/c2ccc([N+](=O)[O-])o2)c1	17	0	9	13	·	-13
O=C(Nc1ccc2oc(=O)ccc2c1)c1ccc(-c2ccccc2[N+](=O)[O-])o1	-2	0	5	14	3	10

Results in EWS-Fli inh, for some of the entries so far:
compound | EWS-Fli inh
CC(C)NC(=O)Nc1ccc2c(c1)CC(=O)N([C@@H](C)CO)C[C@@H](C)[C@H](CN(C)Cc1ccc(Oc3ccccc3)cc1)O2 | 18
O=C(NC1CCC(O)CC1)c1cccnc1Sc1ccccc1Cl (configuration not stated) | 0
CCN(c1ccccc1)S(=O)(=O)c1ccc(C(=O)Nc2nnc(CSC)o2)cc1 | 30

2 entries from above, as a markdown table.
| Compound | PAX8 reporter | CASP6 VEID inh | LGR2 antag | EWS-Fli inh | SIRT5 inh | DENV2 CPE rescue |
| --- | --- | --- | --- | --- | --- | --- |
| C[C@@H]1CN([C@H](C)CO)C(=O)c2cc(-c3cncnc3)cnc2O[C@@H]1CN(C)C(=O)c1ccccc1F | · | 0 | -1 | -2 | -3 | ? |
| CCCc1nnc(-c2ccc(OC)cc2)o1 | -27 | -4 | · | -12 | 6 | 3 |
